From PubChem
AID504770 – growth inhibition of E. coli YBA685, primary screen, V. cholerae RctB inhibitors; E. coli YBA685 rctB-dependent plasmid, OD600 growth, 3 h; hits give low values; z-score (test concentration not listed); 130,000 compounds, 0.27% hits;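 active = z-score under -2 on both plates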;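 also: wells of about 30 µL received 100 nL stock; score is relative to mean and SD of the test wells; the first replicate is given; strong numbers were not always called active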
Ba CapD inh – Bacillus anthracis CapD inhibitors, primary screen, biochemical, fluorescence intensity; 140,000 compounds, 0.23% hits; purified CapD enzyme, fluorescence intensity read-out; hits give low values; some hits fall short of the stated cut; CapD gamma-glutamyltranspeptidase (Bacillus anthracis Ames Ancestor); AID 492967, 2010; z-score (concentration not given with the values);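 active = z-score under -4 in either of two replicates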;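 also: stock transfer was 100 nL into about 40 µL; score is relative to mean and spread of the plate; one replicate is shown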
* = called active by the depositor; / = not tested or not shown.

SMILES	AID504770	Ba CapD inh
COC(=O)c1ccccc1NC(=S)N(C)C	0.05	0.59
O=C1NC(c2ccccc2)C(c2ccccc2)N1 (centres undefined)	-0.35	47
COc1ccc2ccccc2c1S(=O)Nc1cccc(C(F)(F)F)c1 (centres undefined)	/	0.035
CCOc1ccc2c(c1)-c1c(ssc1=Nc1ccc(C)cc1)C(C)(C)N2C	/	-0.55
COc1ccc2cc(C(=O)N3CCCCCC3)sc(=O)c2c1OC	-1.2	-0.78
O=C(O)C1CSC(c2cccs2)=N1 (centres undefined)	0	/
CCc1ccc(-c2cc(C)no2)cc1S(=O)(=O)N1CCC(c2ccccc2)C1 (centres undefined)	-0.05	0.11
COC(=O)c1c(COc2ccccc2)n[nH]c1C	1.3	-0.49
Cc1cc(C(=O)CN2C(=O)C3(OCCO3)c3cc([N+](=O)[O-])ccc32)c(C)o1	/	-3.4
CC(C)N=c1scc(-c2ccc(F)cc2)n1/N=C/c1ccc(O)cc1O	-0.5	/
COc1ccc(C2=NN(S(=O)(=O)c3ccc(C)cc3)C(c3cccc([N+](=O)[O-])c3)C2)cc1OC (centres undefined)	/	-0.48
c1ccc(-c2csc3ncnc(NC4CC4)c23)cc1	/	0.32
O=C1C2C3C=CC(C3)C2C(=O)N1CCN1C(=O)C2C3C=CC(C3)C2C1=O (centres undefined)	1.5	/
CCOC(=O)C(Cc1ccc(Cl)cc1)NC(=O)OCCc1ccccc1OC (centres undefined)	/	-0.79
O=C(CSc1nc2ccccc2[nH]1)Nc1nc2ccc([N+](=O)[O-])cc2s1	/	-1.5
COc1cc(OC)nc(N2CCN(C(=O)c3ccccc3NS(C)(=O)=O)CC2)n1	/	0.27
CCOC(=O)c1ccc2c(c1)C1C=CCC1C(c1ccccc1F)N2 (centres undefined)	/	4.1
COc1ccccc1CNC(=O)NCCC(=O)c1ccc(F)cc1	/	-0.11
CCOC(=O)C1=C(C)NC2=C(C(=O)C(C(=O)OCC)C(c3cccc(OC)c3)C2)C1c1ccc(O)c(OC)c1 (centres undefined)	/	2.8
O=C1C2CCCC1CC(C(=O)N1CCN(c3ccccc3Cl)CC1)C2 (centres undefined)	-0.15	/

Brought forward from above: four entries, then new ones.
SMILES	AID504770	Ba CapD inh
CCOC(=O)c1ccc2c(c1)C1C=CCC1C(c1ccccc1F)N2 (centres undefined)	/	4.1
COc1ccccc1CNC(=O)NCCC(=O)c1ccc(F)cc1	/	-0.11
CCOC(=O)C1=C(C)NC2=C(C(=O)C(C(=O)OCC)C(c3cccc(OC)c3)C2)C1c1ccc(O)c(OC)c1 (centres undefined)	/	2.8
O=C1C2CCCC1CC(C(=O)N1CCN(c3ccccc3Cl)CC1)C2 (centres undefined)	-0.15	/
CC(Cl)COC(=O)NC1CCN(Cc2ccc(Cl)c([N+](=O)[O-])c2)C1 (centres undefined)	/	0.04
O=C(NC1CCCCNC1=O)OCCN1CCN(Cc2cc3ccccc3o2)CC1 (centres undefined)	/	-0.2
Cc1cc(NC(=O)CCS(=O)(=O)c2nc(-c3ccccc3)cc(C(F)(F)F)n2)no1	-0.7	0.21
CCc1ccc(-n2c(=O)c3c4c(sc3n(CC(=O)N(C)C3CCCCC3)c2=O)CCC4)cc1	-0.15	22
CCN(CC)C(=O)CSc1nc(N)cc(=O)[nH]1	-0.7	-0.78
Cc1cccc(C)c1NC(=O)COn1ccc2ccc(S(C)(=O)=O)cc21	/	0.53
COC(=O)c1ccc(NC(=O)CN(C)Cc2cccc(F)c2)cc1	-0.4	/
COc1ccc2[nH]c3nc4cc(Cl)c(Cl)cc4nc3c2c1	/	2.9
CCOC(=O)c1c(CN2CCCCC2)n(C)c2cc(Br)c(OC(C)=O)cc12	/	-0.5
CCOc1ccc(OC(=O)c2cccnc2)cc1	-0.15	2.7
Cn1c(C(C#N)(Cc2ccccc2)Cc2ccccc2)nc2ccccc21	0.15	/
COC(=O)c1sc(-c2ccccc2)cc1NC(C)=O	-0.3	16
COc1ccc(C2(O)CN(c3ccccc3C)C3=[N+]2CCCS3)cc1 (centres undefined)	/	0.23
CCc1ccc(C2C3=C(CCCC3=O)OC3=C2C(=O)CCC3)cc1	-1.4	-0.12
O=C(Nc1nc2ccccc2n1CCOc1ccccc1)c1ccccc1F	/	12
CCCOC(=O)C1=C(C)NC2=C(C(=O)CC(c3ccc(OC)c(OC)c3)C2)C1c1cccc([N+](=O)[O-])c1 (centres undefined)	/	-0.94
CCOc1ccccc1N/C(SCc1ccc(OC(F)(F)F)cc1)=C(/C#N)C(=O)NCc1ccccc1	/	0.005
COCCNC(=O)c1ccc(N2CC3CC(C2)c2cccc(=O)n2C3)c(NC(=O)c2cc3ccccc3oc2=O)c1 (centres undefined)	1.8	-1.4
O=C(COC(=O)c1ccc2c(=O)n3c(nc2c1)CCCCC3)NC12CC3CC(CC(C3)C1)C2	-0.4	/
CCOC(=O)c1c(C)n(C)c2c1cc(OC(C)=O)c1c2c(-c2ccccc2)nn1-c1ccccc1	/	0.16
NNC(=O)CSCCS(=O)(=O)c1ccccc1	/	0.84
O=C(NC1C=CS(=O)(=O)C1)c1sc2ccccc2c1Cl (centres undefined)	-0.65	0.71
O=C(Cc1ccc(Br)cc1)NN1CCOCC1	1.9	-0.31
Cc1cc(C)nc(NS(=O)(=O)c2ccc(NC(=O)c3ccccc3-c3ccc(C(F)(F)F)cc3)cc2)n1	/	0.32
CCN(CC)S(=O)(=O)c1cc(C(=O)Oc2ccc3c(c2)OCO3)ccc1C	-0.5	/
Cc1cc(Oc2ncccc2[N+](=O)[O-])cc(C)c1Cl	/	-0.23
COc1ccc(C(=O)Nc2nccs2)c(OC)c1	-0.9	/
CC1=C(C(=O)OCc2ccccc2)C(c2ccc(Cl)cc2)C(C#N)=C(SCC(=O)c2ccccc2)N1 (centres undefined)	/	-0.92
CCCCC(C(=O)OC)N1C(=O)C2C3c4ccccc4C(c4ccccc43)C2C1=O (centres undefined)	/	-0.32
Cc1cc(C(=O)CSc2nc3ccccc3n2C)c(C)n1C	0	/
O=C(COC(=O)c1cc2c(s1)CCC2)Nc1nccs1	-0.2	/
CCSCCOC(=O)C1=C(C)NC(=O)NC1c1cc2c(cc1Br)OCO2 (centres undefined)	/	-0.23
CSc1c(C#N)c(-c2ccco2)nn1C	-1.4	-0.31
CN(C)/C=C1/C=C(c2ccccc2)N(C)C1=S	-0.8	2.1
CCC1NC(C(=O)O)Cc2c1[nH]c1ccccc21 (centres undefined)	/	2.2
CCC1(C)Cc2ccccc2-c2[nH]c(=S)[nH]c(=O)c21 (centres undefined)	-0.55	/
CCN(CC)c1nc(Nc2ccc(OC)c(Cl)c2)c2cnn(C)c2n1	-0.35	1.7
COCCOC(=O)C1=C(N)OC2=C(C(=O)CC(C)(C)C2)C1c1ccccc1F (centres undefined)	/	0.13
Cc1ccc(C)c(NC(=S)N(CCc2ccccc2)CCc2ccccn2)c1	/	0.48
Cc1csc2c(N3CC(C)OC(C)C3)ncnc12 (centres undefined)	-1.1	0.095
CCNC(=O)c1cc(-c2ccco2)nc2ccccc12	-0.35	78
CCOC(=O)c1cnc(SC2CCc3ccccc3C2=O)nc1N (centres undefined)	-1	/
CCOc1cc(C2C3=C(CC(C)(C)CC3=O)OC3=C2C(=O)CC(C)(C)C3)ccc1OCc1ccc(Cl)cc1Cl	/	-0.4
Cc1ccc(C2C3=C(NCCN=C3c3ccccc3)C(=O)N2c2ccccc2)cc1 (centres undefined)	/	0.4
N#CN(Cc1ccccc1Cl)Cc1ccccc1Cl	-0.75	-0.085
CCN(c1ccc(NC(=O)CN(C)c2ccccc2)cc1)C(C)C	1.3	/
CC(C)(C)c1ccc(CN(Cc2ccco2)Cc2nnnn2C2CCCCC2)cc1	-0.05	/
COc1ccccc1CNC(=O)Cn1cnc2sc(C(=O)Nc3ccc(C)cc3Br)c(C)c2c1=O	/	0.82
COCc1nc2ccc(C)cc2[nH]1	0.45	0.04
S=c1[nH]c(-c2ccccc2)cn1/N=C/c1ccncc1	-0.15	/
C=CCn1c(CCC(=O)OC)nc2ccccc21	0.8	0.16
Cn1c(=O)c(-c2ccccc2)c2c3c(cccc31)C(=O)c1ccccc1-2	/	0.035
COc1ccc(C(=O)Oc2ccc3c(=O)c(Oc4cccc(C)c4)coc3c2)cc1OC	/	0.29
CC(C)(C)NCC(O)COc1ccc(-c2csnn2)cc1 (centres undefined)	-0.8	-0.55
C=C(C)C(=O)Nc1cccnc1Oc1ccccc1F	-0.25	0.41
CC(=O)Nc1ccc(C(=O)CSc2nnc3n2CCCCC3)c(F)c1	-0.2	/
Cc1cc(=O)c2cccc(C(=O)O)c2[nH]1	0.2	/
CC1Cc2nc(SCC(N)=O)n(Cc3ccccc3)c(=O)c2S1 (centres undefined)	-0.6	-1.9
Cn1nccc1C(=O)NCCN	-0.3	0.64
O=S(=O)(NC1CCCCC1N1CCN(C2CCCCC2)CC1)c1ccccc1 (centres undefined)	-0.55	-0.88

Entries shown so far containing bromine:
SMILES	AID504770	Ba CapD inh
CCOC(=O)c1c(CN2CCCCC2)n(C)c2cc(Br)c(OC(C)=O)cc12	/	-0.5
O=C(Cc1ccc(Br)cc1)NN1CCOCC1	1.9	-0.31
CCSCCOC(=O)C1=C(C)NC(=O)NC1c1cc2c(cc1Br)OCO2 (centres undefined)	/	-0.23
COc1ccccc1CNC(=O)Cn1cnc2sc(C(=O)Nc3ccc(C)cc3Br)c(C)c2c1=O	/	0.82

(list continues)
SMILES	AID504770	Ba CapD inh
CCC(C)Cn1c(C)c2c(=O)n(-c3nc4ccccc4s3)[nH]c2cc1=O (centres undefined)	0.35	-1.7
CCCNC(=O)c1ccc(-n2cc(-c3nc4ccccc4o3)cn2)cc1	/	3.2
COc1ccc(O)c(/C=N/NC(=O)CSc2nnc(C)n2-c2ccccc2)c1	0.05	2.6
O=S1(=O)CCN(Cc2ccccc2C(F)(F)F)CC1	1.1	0.15
COc1ccc(S(=O)(=O)N2CCC(NC(=O)NCCCO)CC2)cc1	-0.5	1.6
Cc1cc(C)nc(N2CCC(C(=O)NC(C)c3ccccc3)CC2)n1 (centres undefined)	/	-0.025
Cc1ccc(-c2ccc(C(=O)O)cc2)cc1	-1.6	0.01
CCCCCCNC(=O)n1cc(F)c(=O)[nH]c1=O	-0.1	/
CC(=O)N(c1ccc2oc3c(c2c1)CCCC3)S(=O)(=O)c1cccs1	-0.1	-1.2
CCc1ccccc1NC(=O)CN(C)C(=O)Cn1nnc2ccccc2c1=O	0.6	/
O=C(c1ccccc1)c1ccc(Cl)s1	0	0.065
CCOc1cc(C2C(C(=O)OCCOC)=C(C)NC3=C2C(=O)CC(c2ccc(Cl)cc2)C3)ccc1O (centres undefined)	/	3
Cn1c(C2CC(=O)N(Cc3ccccc3)C2)nc2ccccc21 (centres undefined)	2.4	-0.38
C=CCN1C(=O)S/C(=C\c2cc(OC)ccc2OC)C1=O	1.4	-1.1
Cc1c(CCOC(=O)C2CC2)sc[n+]1CC(=O)c1ccccc1	-0.85	0.15
COC(=O)c1cc(C(=O)OC)cc(-n2c(C)cc(C(=O)COc3ccc(-c4nnco4)cc3)c2C)c1	-0.3	/
CCCCCSc1nc(N2CCOCC2)c2c(c1C#N)CC(C)(C)OC2	/	-0.16
O=S1(=O)Cc2snnc2-c2cc(Cl)ccc21	-0.2	0.48
CC(C)(C)c1ccc(-c2nnn(-c3ccccc3)n2)cc1	2.7	-0.78
NC(=O)NN=C1c2cc(S(=O)(=O)N3CCOCC3)ccc2-c2ccc(S(=O)(=O)N3CCOCC3)cc21	/	-0.65

Two records drawn at random from the list so far:
SMILES	AID504770	Ba CapD inh
COC(=O)c1sc(-c2ccccc2)cc1NC(C)=O	-0.3	16
COC(=O)c1ccc(NC(=O)CN(C)Cc2cccc(F)c2)cc1	-0.4	/

The main list resumes, starting five compounds before the break.
SMILES	AID504770	Ba CapD inh
COC(=O)c1cc(C(=O)OC)cc(-n2c(C)cc(C(=O)COc3ccc(-c4nnco4)cc3)c2C)c1	-0.3	/
CCCCCSc1nc(N2CCOCC2)c2c(c1C#N)CC(C)(C)OC2	/	-0.16
O=S1(=O)Cc2snnc2-c2cc(Cl)ccc21	-0.2	0.48
CC(C)(C)c1ccc(-c2nnn(-c3ccccc3)n2)cc1	2.7	-0.78
NC(=O)NN=C1c2cc(S(=O)(=O)N3CCOCC3)ccc2-c2ccc(S(=O)(=O)N3CCOCC3)cc21	/	-0.65
CC(C)C1NC(=S)NC2=C1CCCC2 (centres undefined)	-2.5	-0.45
CCOC(=O)c1nnn(-c2nonc2N)c1CN1CCCCC1	/	-0.3
Cc1nc(-c2cc3ccccc3oc2=O)cc2c1c(=O)oc1ccccc12	/	0.96
O=C(c1cc2c(s1)CCC2)N1CCc2ccccc2C1	1.6	-0.59
O=C(Nc1sc2c(c1C(=O)O)CCC2)c1ccco1	0.1	/
Oc1cccc2c(Cl)ccc(Cl)c12	-0.95	0.65
Nc1ncc(-c2ccnc3ccccc23)c(-c2ccc(C(F)(F)F)nc2)n1	/	0.69
O=C(Cc1ccccc1)N1CCN(c2ccnc3cc(Cl)ccc23)CC1	0.65	1.1
O=C(NNc1ncccc1C(F)(F)F)c1cccc(C(F)(F)F)c1	-0.8	0.94
COc1ccc(/C=C(\C#N)C(=O)Nc2nccs2)cc1O	0.15	/
CCOc1ccc2nc(NN)c(C3OCCO3)cc2c1	0.4	/
CC(=O)N(CN1C(=O)C2C3c4ccccc4C(c4ccccc43)C2C1=O)c1ccc2c(c1)oc1ccccc12 (centres undefined)	/	-0.37
CC1CCc2c(sc3nc4c5ccccc5c(NCCCN(C)C)nn4c(=O)c23)C1 (centres undefined)	0	36
CCOC(=O)c1c(CSc2nc3ccccc3[nH]2)n(-c2ccccc2)c2ccc(OC(C)=O)cc12	-0.6	-1.7
CCOC(CNC(=O)c1ccc2c(c1)ncn2-c1ccc(OCc2ccccc2)cc1)OCC	/	0.18
Cc1ccc2c(c1)nc(NCCO)n2C	-0.35	0.59
CSc1n[nH]c(-c2sc3cc(C(F)(F)F)cnc3c2-c2cccs2)n1	/	112
